rRNA inh HTS = inhibitors of bacterial rRNA selective over humanized ribosomes | E. coli WT GFP vs humanized-ribosome RFP mutants, fluorescence, 24 h; active compounds read low; DMSO median 0, no signal -100 | GFP signal change (wild-type ribosome), % (test concentration not listed) | 1.6% of 350,000 active;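 active means significant combined selectivity score with lowered wild-type GFP, culture density cut under 30%, mutant RFP and density less affected; inactive means any of these conditions unmet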; further: one replicate is shown; some compounds called inactive have numbers as strong as hits
ALR inh = blocks human ALR sulfhydryl oxidase activity. P55789. purified ALR, DTT oxidation, H2O2 HRP-luminol luminescence. inhibition, % (test concentration not listed). 3.8% of 290,000 active. AID 485317;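 active means mean and each replicate at 75% or more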;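 further: stock transfer was 7.5 nL into about 7.5 µL; 0% = neutral wells and 100% = wells with inactivated enzyme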
Target sequence (P55789 whole entry, looked up): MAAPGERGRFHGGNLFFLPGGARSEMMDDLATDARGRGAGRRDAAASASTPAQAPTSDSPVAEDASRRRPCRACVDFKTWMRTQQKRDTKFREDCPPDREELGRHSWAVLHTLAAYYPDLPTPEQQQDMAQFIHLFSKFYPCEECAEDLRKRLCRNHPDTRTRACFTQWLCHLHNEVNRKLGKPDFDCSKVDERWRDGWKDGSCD
UCH37 DUB inh = human UCH37 deubiquitinating enzyme inhibition; purified proteasome/UCH37, Ub-AMC cleavage fluorescence; inhibition, % (test concentration not listed); 0.33% of 330,000 active; AID 588478;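 active means mean of two replicates above 20%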;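 further: 0% = compound-free wells with enzyme and 100% = wells lacking proteasome; stock transfer was 100 nL into about 20 µL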
Target sequence (Q9Y5K5 whole entry, looked up): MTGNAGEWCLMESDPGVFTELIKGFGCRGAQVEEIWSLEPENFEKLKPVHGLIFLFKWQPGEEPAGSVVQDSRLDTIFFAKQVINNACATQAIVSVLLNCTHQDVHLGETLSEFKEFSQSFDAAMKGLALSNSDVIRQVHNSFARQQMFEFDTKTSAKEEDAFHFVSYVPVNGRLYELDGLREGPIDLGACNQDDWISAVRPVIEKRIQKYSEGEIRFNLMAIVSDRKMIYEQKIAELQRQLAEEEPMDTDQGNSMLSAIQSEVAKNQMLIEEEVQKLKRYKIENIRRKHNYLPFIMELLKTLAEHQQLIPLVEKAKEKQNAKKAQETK
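System: Proteasome-associated human UCH37 deubiquitinase; Input: 0.15 nM proteasome in added enzyme buffer; Also added: Ub-AMC substrate from 1 µM stock; Incubation: 30 min compound-proteasome preincubation then 25 min substrate reaction, room temperature; Detection: fluorescence, ex 355 nm, em 460 nm; Read-out: % inhibition of Ub-AMC cleavage fluorescence; Benchmarks: no-proteasome and no-compound wells.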
E coli growth = blocks Escherichia coli growth | OD600, 23 h; active compounds read low | OD600 absorbance (concentration not given with the values) | 0.21% of 330,000 active | AID 1053175;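 active means OD600 absorbance below the run mean of sample wells minus 3.6 SD, in any replicate, cut at about 0.56 in these data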;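 further: stock transfer was 300 nL into about 60 µL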
HNF4A DNA FP = change in binding of human HNF4 alpha to DNA; P41235; HNF4a-FITC DNA binding, fluorescence polarization, 1 h; activity change, % at 10 µM; 0.3% of 360,000 active; AID 1224865; in the data active means activity change above about 30%, passing the limit was not always enough;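 further: controls were the assay level and a saturating level of protein; the project sought stronger binding though the title names inhibitors; some compounds called inactive have numbers as strong as hits; positive values seem to mean higher polarization but the record does not say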
FGF22 binding = binders of recombinant human FGF22 by thermal shift; Q9HCT0; SYPRO orange fluorescence; percent of sucrose octasulfate shift, DMSO zero; calls only at 9.99 µM; 1.5% of 340,000 active;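 active means melting point raised past a set limit in the mean and every replicate; three in four hits are not shown here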
B2AR ag = human beta-2 adrenergic receptor agonism by FAP; P07550; Am2.2-beta2AR cells, FAP receptor internalization, flow cytometry; reference of the scale not given here; response, % (test concentration not listed); 0.43% of 340,000 active; AID 504454;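 active means response above a set limit, near 3 SD of response in nonfluorescent compounds, cut at about 42% in these data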;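 further: stock transfer was 100 nL into about 11 µL; a reference agonist was the positive control; negative values mostly stem from fluorescent compounds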
Target sequence (P07550 whole entry, looked up): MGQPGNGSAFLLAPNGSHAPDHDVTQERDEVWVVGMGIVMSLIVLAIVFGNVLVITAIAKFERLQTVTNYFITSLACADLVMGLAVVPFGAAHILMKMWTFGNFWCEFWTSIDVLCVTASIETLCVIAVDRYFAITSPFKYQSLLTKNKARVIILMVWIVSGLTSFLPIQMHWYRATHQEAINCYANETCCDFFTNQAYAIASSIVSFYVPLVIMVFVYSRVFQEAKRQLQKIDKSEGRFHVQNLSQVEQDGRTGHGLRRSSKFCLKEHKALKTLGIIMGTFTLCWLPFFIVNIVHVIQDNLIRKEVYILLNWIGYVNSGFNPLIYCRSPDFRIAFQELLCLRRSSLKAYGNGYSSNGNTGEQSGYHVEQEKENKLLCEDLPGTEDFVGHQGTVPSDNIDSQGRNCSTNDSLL
rRNA inh HTS OD600 = also measured in rRNA inh HTS; calls as there; OD600 change, %; measured here: OD600 growth;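 optical density of the mix in the first replicate; 0 = DMSO median and -100 = no signal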
rRNA inh HTS RFP = further read-out of rRNA inh HTS, marked with its call; RFP signal change, %; measured here: RFP humanized mutant strains;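 first replicate; 0 = DMSO median and -100 = no signal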
* hit, by the source's call; i = inactive; . = no result given.

SMILES	rRNA inh HTS	rRNA inh HTS OD600	rRNA inh HTS RFP	ALR inh	UCH37 DUB inh	E coli growth	HNF4A DNA FP	FGF22 binding	B2AR ag
Cc1ccccc1NC(=O)CC1SC(=NC2CCCCC2)NC1=O (stereo not drawn)	.	.	.	-2.0	1.8	0.758	0.5	.	-7.5
CC1(C)CC(=O)C(C=NCCCN2CCOCC2)=C(O)C1	.	.	.	-7.5	0.0	0.736	1.5	.	2.0
CN(Cc1ccccc1)C(=O)Cn1c(=O)oc2cc(S(=O)(=O)NCc3ccccc3)ccc21	1.7	2.9	-0.9	-0.9	2.4	0.729	-1.3	i	-2.2
CC1CN(S(=O)(=O)c2cccc(C(=O)NCC3COc4ccccc4O3)c2)CC(C)O1 (stereo not drawn)	-4.5	-12.1	-2.2	-31.8	4.8	0.68	0.9	i	2.4
CCCCn1nc2cc(C(=O)NCc3cc(C(F)(F)F)cc(C(F)(F)F)c3)ccc2c1OC	7.4	6.5	-8.7	1.7	-17.7	0.668	1.0	i	-1.0
O=C1CC(c2ccccc2)CC(=NCCO)/C1=C(\O)CCCN1C(=O)c2ccccc2C1=O (stereo not drawn)	-2.3	-9.4	-0.9	.	.	.	3.6	i	-3.0
O=C(Nc1ccccc1C(=O)O)c1ncn[nH]1	.	.	.	.	-1.3	0.749	1.2	.	-9.0
Cc1cccc(C)c1NC(=O)CN(C)C(=O)c1cccc(S(=O)(=O)N2CCN(c3ccc(F)cc3)CC2)c1	-4.4	1.3	-0.6	1.3	1.3	0.705	0.8	i	-5.4
Cc1cc2ncc(C(N)=O)cn2n1	12.1	14.2	-1.9	-15.4	1.5	0.681	3.8	i	0.3
CCN1CCCC1CNC(=O)c1c(O)c2c([nH]c1=O)CCCC2 (stereo not drawn)	.	.	.	-15.1	0.7	0.747	-0.5	.	-7.5
Cc1nn(-c2ccccc2)c(NC(=O)c2cccs2)c(-c2ccccc2)c1=O	.	.	.	-7.5	-0.2	0.686	-1.0	.	-3.4
COc1ccc(-n2nc(C(=O)NCC(=O)N3CCOCC3)c3ccccc3c2=O)c(OC)c1	3.1	6.7	-0.5	0.4	0.2	0.629	0.4	i	-0.2
CCN1C(=O)[C@@H]2[C@H](C1=O)[C@@H]1C(=O)Nc3ccccc3C(=O)N1[C@@H]2c1ccc(OC)cc1	4.7	14.3	0.8	-1.7	2.5	.	-0.9	i	-1.0
CCCCCC(=O)N1C[C@@H](n2cc(C3CC3)nn2)[C@H](O)C[C@@H]1c1ccc(C)cc1	-14.1	-13.4	-3.4	.	.	.	-4.7	i	.
CCCNC(=O)c1ccccc1NC(=O)COc1cccc2c1OC(C)(C)C2	-3.8	-7.1	-2.1	.	-2.5	0.645	0.9	i	16.7
C/C(=N\Nc1nc2ccccc2[nH]1)c1cccs1	.	.	.	99.0*	.	.	4.2	.	-2.2
Cc1ccc(C(=O)NCCSc2ccc(Cl)cc2)cc1S(=O)(=O)Nc1ccccc1	-34.7	-39.7	16.4	-4.4	1.5	0.68	-1.1	i	21.5
CCOC(=O)c1nn(-c2cccc(C)c2)c2nnc(Cc3ccc(C)cc3)c(=O)n12	.	.	.	-1.0	3.4	0.64	1.2	.	1.6
CCOC(=O)Cc1csc(NC(=O)c2ccc(Br)o2)n1	.	.	.	4.4	5.1	0.681	-1.9	.	2.3
Cc1cc(=O)[nH]c(N/N=C/c2c(C)nn(-c3ccc(F)cc3)c2Cl)n1	-6.7	2.8	-3.6	-3.0	.	.	3.9	i	3.6
CCOC(=O)C(C)Sc1ncc(OC)c(=O)[nH]1 (stereo not drawn)	.	.	.	-1.4	1.5	0.701	0.3	.	-0.9
CCOC(=O)N1CCN(C/C(C)=C/c2ccccc2)CC1	.	.	.	-5.3	-0.5	0.691	1.3	.	-0.5
CC(C)c1cc(=O)[nH]c(N2CCN(Cc3ccc4c(c3)OCO4)CC2)n1	-10.8	-7.2	2.2	-7.4	2.4	0.673	-0.4	i	-8.7
CS(=O)(=O)N(Cc1ccc(C(=O)NN=C2CCCC2)cc1)c1ccccc1	.	.	.	.	0.2	0.637	4.0	.	-1.7
O=C(CCc1ccc(S(=O)(=O)N2CCOCC2)cc1)NCCCN1CCCC1=O	.	.	.	-2.6	0.7	0.722	4.6	.	0.3
Cc1cc(=O)oc2cc(O)c(N=Nc3ccccc3)cc12	4.2	-3.0	7.8	-8.8	2.9	0.725	-1.5	i	4.3
OCC(Cc1ccccc1)NCc1ccccc1C(F)(F)F (stereo not drawn)	7.0	5.8	2.1	-1.2	1.2	0.649	2.6	i	-153.8
COc1ccc(N2CCN(C(CNC(=O)COc3ccccc3)c3ccco3)CC2)cc1 (stereo not drawn)	-2.6	-9.7	-0.4	89.4*	-2.7	0.677	3.8	i	-9.6
C=C(CC1([C@@H](NP(=O)(c2ccccc2)c2ccccc2)[C@H]2C[C@@H]2CCCC)CC1)c1ccccc1	8.5	-1.0	-2.2	.	0.6	.	5.1	i	-4.0
O=C(Nc1ccc(Cl)cc1C(=O)c1ccccn1)c1ccccc1	9.8	10.0	-0.5	.	.	.	4.2	i	.

5 compounds from above, arranged by the number in ALR inh, falling:
structure	rRNA inh HTS	rRNA inh HTS OD600	rRNA inh HTS RFP	ALR inh	UCH37 DUB inh	E coli growth	HNF4A DNA FP	FGF22 binding	B2AR ag
COc1ccc(N2CCN(C(CNC(=O)COc3ccccc3)c3ccco3)CC2)cc1 (stereo not drawn)	-2.6	-9.7	-0.4	89.4*	-2.7	0.677	3.8	i	-9.6
CCOC(=O)c1nn(-c2cccc(C)c2)c2nnc(Cc3ccc(C)cc3)c(=O)n12	.	.	.	-1.0	3.4	0.64	1.2	.	1.6
O=C(CCc1ccc(S(=O)(=O)N2CCOCC2)cc1)NCCCN1CCCC1=O	.	.	.	-2.6	0.7	0.722	4.6	.	0.3
Cc1cc(=O)[nH]c(N/N=C/c2c(C)nn(-c3ccc(F)cc3)c2Cl)n1	-6.7	2.8	-3.6	-3.0	.	.	3.9	i	3.6
CC(C)c1cc(=O)[nH]c(N2CCN(Cc3ccc4c(c3)OCO4)CC2)n1	-10.8	-7.2	2.2	-7.4	2.4	0.673	-0.4	i	-8.7

(listing goes on)
SMILES	rRNA inh HTS	rRNA inh HTS OD600	rRNA inh HTS RFP	ALR inh	UCH37 DUB inh	E coli growth	HNF4A DNA FP	FGF22 binding	B2AR ag
CC(C)CCNC(=O)CN(C(=O)CCC(=O)Nc1ccccn1)c1ccc(F)c(Cl)c1	22.4	20.4	0.0	-2.1	0.9	0.677	0.0	i	-6.4
O=C(CP(=O)(c1ccccc1)c1ccccc1)Nc1nc2ccccc2s1	-35.9*	-9.4*	3.6*	-9.2	-0.3	0.66	2.9	i	-4.3
COc1ccc(CC(=O)Nc2cc(S(=O)(=O)N3CCCCC3)ccc2OC(C)C)cc1OC	-5.3	-11.7	-0.3	.	.	.	-2.5	i	.
Cc1ccc(CN2CN(S(=O)(=O)c3cccs3)c3nc4ccccc4nc32)cc1	.	.	.	-3.8	-4.0	0.745	-2.6	.	-8.6
CCOC(=O)N1CCC(Nc2c(NCCCN3CCN(CC)CC3)c(=O)c2=O)CC1	.	.	.	-21.1	-1.3	0.71	-0.7	.	7.1
CCc1ccc(S(=O)(=O)N2CCCC(N3CCN(c4ccc(OC)cc4)CC3)C2)cc1 (stereo not drawn)	-5.7	-9.8	-3.8	16.5	2.8	0.705	1.2	i	1.0
CN(C)C(=O)c1c(NC(=O)c2ccccc2)sc2c1CCC2	-0.7	-1.4	-0.6	30.5	7.1	0.676	2.1	i	3.7
COc1ccccc1C(=O)Nc1ccc2c(C)cc(=O)oc2c1	17.9	17.4	0.2	39.5	-91.8	0.706	4.8	i	-23.9
O=C(COc1ccc2c(c1)CCC2)N1CCc2ccccc21	.	.	.	.	0.5	0.729	2.2	.	-2.9
Clc1cc(Cl)c2nc(N3CCCC3)sc2c1	.	.	.	55.2	2.3	0.645	-2.7	.	-4.0
Cc1coc2c1c(C)cc1oc(=O)c(CC(=O)NCC(=O)N[C@H](C(=O)O)C(C)C)c(C)c12	0.8	5.4	2.9	32.3	-468.4	0.678	0.1	i	-0.4
CC(C)(C)C(=O)NC(=S)Nc1sc2c(c1C(N)=O)CCC2	8.8	6.9	8.4	.	2.1	0.732	-3.6	i	-18.0
CC#CC(=O)N1CCC(n2nccc2NC(=O)CCc2ccccc2)CC1	1.3	-7.8	1.1	.	.	.	-3.4	i	.
Cc1cccc(NC(=O)c2ccc3c(=O)n4c(nc3c2)CCCCC4)n1	1.8	10.4	-0.7	0.0	4.1	0.652	0.9	i	-0.7
Cc1ccc(-c2nn(-c3ccccc3)cc2C2CC(c3ccccc3)=NN2C(=O)CCC(=O)O)cc1 (stereo not drawn)	4.5	-0.1	-9.6	6.5	2.6	0.634	0.6	i	-9.9

Just UCH37 DUB inh and ALR inh (2 entries from above):
SMILES,UCH37 DUB inh,ALR inh
Clc1cc(Cl)c2nc(N3CCCC3)sc2c1,2.3,55.2
CCOC(=O)N1CCC(Nc2c(NCCCN3CCN(CC)CC3)c(=O)c2=O)CC1,-1.3,-21.1

The list goes on:
SMILES	rRNA inh HTS	rRNA inh HTS OD600	rRNA inh HTS RFP	ALR inh	UCH37 DUB inh	E coli growth	HNF4A DNA FP	FGF22 binding	B2AR ag
CCN(CC)S(=O)(=O)c1ccc2c(c1)oc(=O)n2CC(=O)N(C)C1CCCCC1	4.3	5.1	-2.7	-6.5	1.0	0.634	2.3	i	1.4
CCOC(=O)CNC(=O)Cn1cnc2ccc(S(=O)(=O)N3CCC(C)CC3)cc2c1=O	.	.	.	-1.8	3.6	0.746	0.4	.	0.4
Cc1cc2cc(CNC(=O)CCC(=O)O)ccc2[nH]1	.	.	.	-26.1	4.7	0.735	-5.2	.	0.4
CC(=O)NC1CC2CCCC(C1)N2C(=O)Nc1ccccc1C (stereo not drawn)	7.8	14.3	2.6	.	0.8	0.627	-0.5	i	3.9
C/C=C/C(=O)OCC(=O)Nc1ccc(F)cc1Cl	.	.	.	3.0	2.3	0.674	1.0	.	-3.8
COc1cccc(-n2c(C)n[nH]c2=O)c1	.	.	.	-2.5	0.2	0.727	-4.2	.	-5.0
Cc1oc(-c2cccs2)nc1CS(=O)CC(=O)NCCCN1CC(C)CC(C)C1 (stereo not drawn)	0.5	7.0	-0.3	98.8*	5.3	0.733	8.1	i	-358.6
CC(C)(C)c1cc(NC(=O)C2(C)CCN2C(=O)c2ccccc2CCc2ccccc2)no1 (stereo not drawn)	8.6	12.6	2.1	.	.	.	5.3	i	.
Cc1cc(C(=O)OCC(=O)N2CC(C)OC(C)C2)c2ccccc2n1 (stereo not drawn)	9.9	6.4	1.0	-2.2	-3.8	0.719	-6.1	i	0.3
CC(C)(C)S(=O)N1Cc2cc(C(=O)N3CCOCC3)nc(-c3cccc(Br)c3)c2[C@@H]1CCO (stereo partly drawn)	5.2	8.9	-0.3	.	.	.	8.3	i	.

Taken from above:
Cc1cc2cc(CNC(=O)CCC(=O)O)ccc2[nH]1 in ALR inh is listed with -26.1
CCN(CC)S(=O)(=O)c1ccc2c(c1)oc(=O)n2CC(=O)N(C)C1CCCCC1 in UCH37 DUB inh is listed with 1.0
CC(C)(C)c1cc(NC(=O)C2(C)CCN2C(=O)c2ccccc2CCc2ccccc2)no1 (stereo not drawn) in rRNA inh HTS OD600 is listed with 12.6
CC(=O)NC1CC2CCCC(C1)N2C(=O)Nc1ccccc1C (stereo not drawn) in HNF4A DNA FP is listed with -0.5

The list is partial, so the mix of outcomes need not match the whole.
